miR-21 FLuc – miR-21 reporter, rising signal; HeLa miR-21 FLuc reporter, luciferase, 48 h; Potency, µM (series often up to 38.3 µM), without a hit: top-dose reporter change, positive = more light; 340,000 tested, under 10 active; AID 2288; active = well fitted rising curve with a large enough effect; inconclusive = small, poorly fitted or top-dose-only effect; inactive = no such curve, though single readings can be large or run the other way;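 also: % of control where 0% means no effect; miR-21 action dims this reporter so a rising signal means less miR-21 action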
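HeLa cells stably expressing CMV-driven firefly luciferase with a downstream miR-21 binding sequence, endogenously expressing miR-21, were treated with titrations (up to about 40uM final) for 48 hours at 37 degree Celsius. Luciferase luminescence was read after lysis.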
GLA inh pH 4.5 – inhibitors of human alpha-galactosidase A at pH 4.5; P06280; purified enzyme, 4-MU-alpha-Gal fluorescence, pH 4.5; activity change, negative = inhibition, % at 105 µM; 230,000 tested, under 10 active; AID 1467; inconclusive = small, poorly fitted or top-dose-only inhibition, or a rising curve; inactive = flat fitted curve, though single readings scatter; no compound was filed as active;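 also: 0% = full activity with enzyme and -100% = basal without enzyme; dose as in the result columns while the protocol names 77 µM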
Rango dissoc inh – prevents RanGTP from dissociating the Rango-importin beta complex; 340,000 tested, 0.071% active; Biochemical FRET Rango-importin beta, RanGTP-induced dissociation; Potency, µM (doses to about 46.1 µM), inactives show top-dose activity change, negative = inhibition; O95149+P62826; AID 540253; active means falling FRET ratio curve, often poorly fitted, with flat reads before Ran was added; inconclusive means other falling curves, or compound fluorescence or quenching; inactive means flat or rising ratio curve;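 also: potency is read from the fitted curve at half-maximal effect; % of control where 0% means no effect; nearly all actives have a fitted effect of over 45% in size; -100% = wells without RanGTP and RCC1; the record marks most hits as doubtful in a second field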
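Quantitative HTS using a FRET biosensor: 0.1 uM Rango, 0.25 uM importin beta, 0.6 uM Ran, 2 mM GTP, 0.2 uM RCC1 final, PBS with DTT, Tween-20 and BSA. Post-read taken 45 min after Ran addition.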
Rango-impB inh – prevents formation of the Rango-importin beta complex | Q14974 | Rango CFP/YFP FRET sensor + importin beta, 45 min | Potency, µM (highest dose often 92.2 µM), for the others: top-dose inhibition of complex formation | 340,000 tested, 0.031% active; active = rising FRET ratio curve, often small or poorly fitted; inconclusive = mostly compound fluorescence or quenching in the first reads; inactive = flat curves in all reads;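 also: potency is read from the fitted curve at half-maximal effect; 0% = DMSO wells and 100% = buffer wells lacking importin beta; nearly all actives have a fitted effect of over 15% in size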
Target sequence (Q14974 whole entry, looked up): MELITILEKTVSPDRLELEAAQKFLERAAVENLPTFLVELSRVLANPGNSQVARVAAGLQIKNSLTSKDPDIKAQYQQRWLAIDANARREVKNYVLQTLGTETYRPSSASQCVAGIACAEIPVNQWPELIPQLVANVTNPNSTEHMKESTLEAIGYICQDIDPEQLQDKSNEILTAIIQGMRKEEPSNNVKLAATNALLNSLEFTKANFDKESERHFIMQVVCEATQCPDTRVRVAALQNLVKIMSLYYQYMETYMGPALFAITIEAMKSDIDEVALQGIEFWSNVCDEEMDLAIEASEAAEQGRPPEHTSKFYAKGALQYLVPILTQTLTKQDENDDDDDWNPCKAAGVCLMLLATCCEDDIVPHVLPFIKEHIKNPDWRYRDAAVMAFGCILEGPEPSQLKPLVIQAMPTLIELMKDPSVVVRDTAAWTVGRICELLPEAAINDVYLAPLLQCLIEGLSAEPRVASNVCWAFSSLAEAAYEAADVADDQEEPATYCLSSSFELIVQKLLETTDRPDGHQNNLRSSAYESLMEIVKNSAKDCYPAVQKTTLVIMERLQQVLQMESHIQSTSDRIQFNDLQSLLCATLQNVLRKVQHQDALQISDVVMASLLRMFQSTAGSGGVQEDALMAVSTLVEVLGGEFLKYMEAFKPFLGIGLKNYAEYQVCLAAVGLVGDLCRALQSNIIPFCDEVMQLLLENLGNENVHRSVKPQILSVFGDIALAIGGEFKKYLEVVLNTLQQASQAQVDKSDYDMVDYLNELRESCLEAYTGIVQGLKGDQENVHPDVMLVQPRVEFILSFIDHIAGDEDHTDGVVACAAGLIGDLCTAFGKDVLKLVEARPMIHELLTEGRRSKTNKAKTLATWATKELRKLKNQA
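FRET biosensor Rango (snurportin 1 IBB between N-terminal EYFP and C-terminal Cerulean), 50 nM in PBS/1 mM DTT/0.02% Tween-20/0.1% BSA, preincubated 5 min RT with compound; 0.125 microM importin beta added, 45 min RT, CFP/YFP FRET ratio read.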
Starred values were filed as active, the others as inactive; ? = inconclusive; / = not tested or not shown; & = joins results of further samples.

SMILES	miR-21 FLuc	GLA inh pH 4.5	Rango dissoc inh	Rango-impB inh
O=C(O)CN1C(=O)/C(=C\c2cccc(OCc3ccccc3)c2)SC1=S	-19%	/	0%	?
COc1ccc(N(CC(=O)NCc2ccc(F)cc2)C(=O)c2snc(C(N)=O)c2N)cc1OC	-4%	/	-22%	-0.1%
COc1ccc(CCn2c(=S)[nH]c3ccc(N4CCOCC4)cc3c2=O)cc1OC	-10%	-3	-24%	?
Cc1cnc(NC(=O)C(C)N2C(=O)C3CC=CCC3C2=O)s1 (stereo not drawn)	-4%	4	-12%	0.4%
O=[N+]([O-])c1ccc(SCCO)nc1SCCO	4%	-6	-8%	0.8%
NS(=O)(=O)c1ccc(NCc2cc(Cl)ccc2OCc2ccc(F)cc2)cc1	9%	-1	-4%	-1.8%
CCCn1c(C)nnc1SCC(=O)NC1CCCCC1	-4%	/	9%	-2.0%
Cc1cc(/C=C2/C(=N)N3C(=NC2=O)SN=C3S(C)(=O)=O)c(C)n1-c1ccccc1F	-32%	-10	?	?
C=CCOc1ccc(C2C(C#N)=C(N)N(Nc3ccccc3)C3=C2C(=O)CC(C)(C)C3)cc1OC (stereo not drawn)	20%	-2	?	?
Cc1ccc(S(=O)(=O)N2CC=C(C(=O)NCCC(C)C)CC2)cc1	0%	2	-1%	3.0%
COc1ccc2c(c1)C(C)CC(C)(C)N2C(=O)NC1CCCCC1 (stereo not drawn)	-28%	2	-18%	-4.7%
COCCOC(=O)c1cc(C(=O)c2cc(F)ccc2O)coc1=N	-4%	2	?	?
CCN(CC)C(=O)C1=C(C)Nc2ncnn2C1c1cccnc1 (stereo not drawn)	-1%	9	-6%	0.6%
COc1cc(NS(=O)(=O)c2ccc(N/C=C(\C=O)c3nc4ccccc4o3)cc2)nc(OC)n1	-7%	-15	?	?
O=C1C(Cl)=C(NC(=O)c2ccccc2)C(=O)C(Cl)=C1NC(=O)c1ccccc1	?	/	-3%	3.1%
COc1ccccc1-c1nc(SCC(=O)O)n[nH]1	-5%	-4	11%	0.0%
COc1ccccc1OCCOC(=O)Nc1ccccc1	-40%	-5	13%	?
O=c1[nH]cnc2cc(Cl)ccc12	-6%	8	16%	-2.6%
COc1ccc2cc(C(=O)NCCO)sc(=O)c2c1OC	-9%	-2	-9%	2.5%
O=C(CCC(=O)c1ccc(Br)cc1)Nc1cccc(C(F)(F)F)c1	-3%	-6	-15%	-3.9%
COc1cccc2[nH]c3c(Cl)ncnc3c12	11%	9	-10%	-3.1%
Cn1c(=O)c2c(nc(Cl)n2Cc2ccc(Cl)c(Cl)c2)n(C)c1=O	0%	0	3%	3.3%
Cc1ccc(N2C(=O)CC(N3CCN(c4ccccn4)CC3)C2=O)cc1 (stereo not drawn)	-5%	5	-9%	4.0%
O=C(Nn1cnnc1)c1cc(-c2cccc(Br)c2)nc2ccccc12	-16%	8	0%	?
COc1ccc(C(OC(=O)c2ccco2)C(=O)NCc2ccc(C)cc2)cc1 (stereo not drawn)	-10%	-2	-2%	-1.8%
CC1CCN(S(=O)(=O)c2ccc(NC(=O)C3CCN(C(=O)c4ccco4)CC3)cc2)CC1	10%	/	-8%	-4.9%
CN(C(=O)COC(=O)c1nn(C)c(=O)c2ccccc12)c1c(N)n(Cc2ccccc2)c(=O)[nH]c1=O	/	/	-12%	3.1%
N#Cc1ccccc1NC(=O)COC(=O)/C=C/c1ccc(S(=O)(=O)N2CCOCC2)cc1	/	/	39%	-0.3%
Cn1cc(C(=O)c2ccc(Cl)cc2)cc1-c1nc2ccccc2n1C	26%	-4	12%	4.1%
CCNc1nc(CSc2ccccc2)nc2sc(C)c(C)c12	-23%	-2	7%	-1.2%
Cc1nnc(SCc2cc(=O)[nH]c(/N=C(\N)Nc3ccccc3Sc3ccccc3)n2)s1	2%	-3	0%	3.1%
Cc1ccc(C)c(N2CCN(C(=O)CCS(=O)(=O)c3ccc4c(c3)NC(=O)C(C)S4)CC2)c1 (stereo not drawn)	3%	/	-5%	1.1%
CCN(CC(=O)Nc1ccc2c(c1)OCCO2)CC(=O)Nc1ccc(C)c(S(=O)(=O)N(C)C)c1	/	/	3%	-2.7%
COc1ccc(S(=O)(=O)N(CCCN2CCOCC2)Cc2cccc(OC)c2OC)cc1	-6%	9	1%	-1.2%
Nc1ccccc1Sc1ccccc1[N+](=O)[O-]	-4%	4	-2%	-3.4%
CN1C(=O)C(O)(C2COC(C)(C)CC2=O)c2cc(Br)ccc21 (stereo not drawn)	15%	-3	-7%	-0.1%
COC(=O)[C@]1(Cc2ccccc2)N[C@H](CN(C)C(=O)c2ccc(C)cc2)[C@@H]2C(=O)N(C)C(=O)[C@@H]21	/	/	-11%	-0.7%
COc1ccc2oc(C(=O)N3CCN(c4ncccn4)CC3)c(C)c2c1	-12%	/	-5%	3.8%
CNC(=O)COc1coc(CN2CCN(C(=O)c3ccco3)CC2)cc1=O	/	/	0%	-0.5%
N#Cc1nc(Nc2cc(F)cc(F)c2)c2ncn(CC(F)F)c2n1	/	/	-5%	7.0%
CC(C)N(Cc1ccccc1)C(=O)CN1C(=O)NC(Cc2ccccc2)(c2ccccc2)C1=O (stereo not drawn)	0%	/	-7%	?
CCCCN(C(=O)C1CCC1)c1c(N)n(CCC)c(=O)[nH]c1=O	/	/	8%	2.2%
COC(=O)c1ccc(C23CC4(C2)[C@H](CN(Cc2ccc(-c5ccccc5)cc2)[C@@H]4c2ccccc2)C3c2ccccc2)cc1 (stereo partly drawn)	-8%	-2&5	0%	0.9%
O=S(=O)([O-])C/C(=C\c1ccc(Cl)cc1)c1cc[n+](CCO)cc1	0%	-1	-2%	5.2%
CCc1ccccc1NC(=S)N(CCCN(C)C)Cc1cc2cc3c(cc2[nH]c1=O)OCO3	-5%	5	30%	4.3%
Cc1cnc(-c2nnc(N(C)C(=O)C3CCOC3)s2)cn1 (stereo not drawn)	-27%	-7	-10%	2.8%
O=C(c1ccc(S(=O)(=O)N2CCCCCC2)cc1)N1CCCC(C(F)(F)F)C1 (stereo not drawn)	/	/	-4%	-1.7%
O=C(CCc1ccccc1)NC1C2CC3CC(C2)CC1C3 (stereo not drawn)	-24%	/	-5%	-2.7%
Cn1c(=S)[nH]c2c(c1=O)C(C)(C)Cc1ccccc1-2	6%	18	-8%	1.8%
CC(=O)NCCC(=O)N1CCc2c([nH]c3ccccc23)C1c1cccc(Cl)c1 (stereo not drawn)	7%	5	-6%	?
Cc1ccc(NC(=O)CCN2CCN(C/C=C/c3ccccc3)CC2)cc1	1%	0	-26%	-0.2%
CC(C)C(C)NC(=O)COc1ccc(-c2ccccc2)cc1 (stereo not drawn)	-7%	8	-1%	-0.4%
CCCOc1ccc(C(=O)NCC(c2ccco2)N(C)C)cc1 (stereo not drawn)	-11%	11	-7%	-0.1%
Clc1ccccc1-c1nc2ccccc2c2nc3ccccc3n12	2%	3	-9%	-0.7%
O=C(NC(C(=O)c1ccccc1)N1CCCCC1)c1ccccc1 (stereo not drawn)	-25%	-8	-12%	?
Cn1c(-c2ccc3c(c2)OCO3)cnc1NCc1ccccc1	-21%	4	7%	4.7%
Cc1ccc(NC(=O)CSc2ccc3nnc(CCNC(=O)c4ccccc4)n3n2)c(C)c1	-8%	-1	15%	-2.5%
CCN1CCN(c2ccc(NC(=O)c3cnccn3)cc2)CC1	-26%	6	/	/
CCOC(=O)C1=CC[C@H]2c3c(c4ccccc4n3C)C(=O)C1N2C(=O)OC(C)(C)C	/	/	5%	3.4%
Fc1ccc2nc(Nc3nc4cc5c(cc4s3)OCO5)sc2c1	-67%	-10	-1%	0.2%

Later entries
SMILES	miR-21 FLuc	GLA inh pH 4.5	Rango dissoc inh	Rango-impB inh
O=C(/C=C/c1c(Cl)cccc1Cl)N1CCN(c2ncccn2)CC1	-8%	-3	6%	2.4%
O=C1CCCCC1Sc1nnc(Cc2cccs2)n1CCc1ccccc1 (stereo not drawn)	0%	1	-21%	-0.7%
c1ccc(C2CSc3ccccc3N2)cc1 (stereo not drawn)	-59%	/	5%	6.6%
Cc1cc(C)nc(NC2=NCC(=O)N2c2ccc(F)c(Cl)c2)n1	-6%	9	8%	0.1%
CC(=O)Nc1cccc(C(=O)NNC(=O)c2ccccc2-n2cccc2)c1	/	/	?	0.1%
CC(C)C[C@H]1CN=C(Nc2ccccc2)N1CCC1CCCCC1	17%	/	3%	2.9%
C[C@H]1CN([C@@H](C)CO)C(=O)c2cc(NC(=O)CCN3CCOCC3)ccc2O[C@H]1CN(C)C(=O)Nc1ccc(F)cc1	/	/	11%	-5.8%
CSCCCNC(=S)Nc1cccc(S(=O)(=O)NC2=NCCC2)c1	-3%	6	8%	1.0%
CC(C)(C)NC(=S)NCC1CC1	5%	0	0%	-1.2%
CN(CC(=O)Nc1cccc(F)c1)C(=O)/C=C/c1ccc(Br)s1	/	/	-5%	-0.7%
CC1CCCCN1C(C(=O)O)c1ccccc1 (stereo not drawn)	-3%	6	9%	-1.2%
CCN(CC1CCCO1)C(=O)CCc1nnc(CCc2ccc(OC)cc2)o1 (stereo not drawn)	-12%	/	6%	1.5%
COc1cccc(/C=N/NC(=O)Cn2cnc3c2c(=O)n(C)c(=O)n3C)c1OC	-2%	-1	-22%	-0.1%
COc1ccccc1NS(=O)(=O)c1cccc(C(=O)N/N=C(\C)c2ccncc2)c1	/	/	12%	4.9%
CN1C(=S)SC(N(O)C(=O)Nc2ccccc2)C1(C)C (stereo not drawn)	-11%	3	1%	2.7%
Cc1nc(SCc2nc3c([N+](=O)[O-])cccc3[nH]2)c2oc3ccccc3c2n1	/	/	6%	-0.9%
Cc1ccc(-n2c(=O)[nH]c3c(C(N)=O)nc(CC(C)C)nc32)cc1	-16%	12	1%	0.0%
Cc1oc(C(=O)O)cc1CSc1nnc(-c2ccccc2)n1C	-3%	4	20%	-1.1%
O=C(N/N=C/c1cn(-c2ccccc2)nc1-c1ccccc1)c1ccco1	8%	4	0%	-1.5%
CCCCCOC(=O)Cc1c(O)c2ccccc2[nH]c1=O	-6%	10	-15%	-7.6%
COC(=O)c1cc(C)sc1NC(=O)C1C2C=CC(CC2)C1C(=O)O (stereo not drawn)	-3%	5	1%	3.5%
O=C(c1ccccc1)c1cnc(Nc2ccccc2Cl)s1	-55%	5	-1%	2.5%

By substructure: the compounds so far with two or more sulfur atoms
SMILES	miR-21 FLuc	GLA inh pH 4.5	Rango dissoc inh	Rango-impB inh
O=C(O)CN1C(=O)/C(=C\c2cccc(OCc3ccccc3)c2)SC1=S	-19%	/	0%	?
O=[N+]([O-])c1ccc(SCCO)nc1SCCO	4%	-6	-8%	0.8%
Cc1cc(/C=C2/C(=N)N3C(=NC2=O)SN=C3S(C)(=O)=O)c(C)n1-c1ccccc1F	-32%	-10	?	?
CCNc1nc(CSc2ccccc2)nc2sc(C)c(C)c12	-23%	-2	7%	-1.2%
Cc1nnc(SCc2cc(=O)[nH]c(/N=C(\N)Nc3ccccc3Sc3ccccc3)n2)s1	2%	-3	0%	3.1%
Cc1ccc(C)c(N2CCN(C(=O)CCS(=O)(=O)c3ccc4c(c3)NC(=O)C(C)S4)CC2)c1 (stereo not drawn)	3%	/	-5%	1.1%
Fc1ccc2nc(Nc3nc4cc5c(cc4s3)OCO5)sc2c1	-67%	-10	-1%	0.2%
O=C1CCCCC1Sc1nnc(Cc2cccs2)n1CCc1ccccc1 (stereo not drawn)	0%	1	-21%	-0.7%
CSCCCNC(=S)Nc1cccc(S(=O)(=O)NC2=NCCC2)c1	-3%	6	8%	1.0%
CN1C(=S)SC(N(O)C(=O)Nc2ccccc2)C1(C)C (stereo not drawn)	-11%	3	1%	2.7%

Entries of single compounds, quoted from the list:
Record of Cc1oc(C(=O)O)cc1CSc1nnc(-c2ccccc2)n1C → miR-21 FLuc: -3%; GLA inh pH 4.5: 4; Rango dissoc inh: 20%; Rango-impB inh: -1.1%
Record of Cc1nc(SCc2nc3c([N+](=O)[O-])cccc3[nH]2)c2oc3ccccc3c2n1 → miR-21 FLuc: /; GLA inh pH 4.5: /; Rango dissoc inh: 6%; Rango-impB inh: -0.9%

An excerpt; the hit share may differ from the screen's.
